# Menin-MLL FL inh: inhibitors of human menin-MLL interaction, wild-type MLL peptide | Fluorescence polarization, fluorescein-MLL peptide displacement from menin | FP activity change, % at 61.4 µM | 290,000 tested, under 10 active | AID 1766; inconclusive = falling polarisation curve, or a change in total fluorescence; inactive = total fluorescence flat and polarisation flat or rising; no compound was filed as active; the % refers to the polarisation; negative = inhibition;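 further: % of control where 0% means no effect; inhibitors lower the polarisation; unlabelled MLL peptide was the positive control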
# Sfp inh: blocks B. subtilis Sfp PPTase activity; Biochemical Sfp PPTase activity, qHTS; Q9F4F7; AID 1490; Potency, µM, for the others: max response, negative = inhibition, hits mostly inhibitors; 310,000 tested, 3.5% active; active means well fitted inhibition curve with a large enough effect; inconclusive means small, poorly fitted or top-dose-only effect, or another doubt; inactive means no such curve, though single readings can be large or run the other way;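 further: the enzyme is Sfp with the accession as filed and its product quenches rhodamine fluorescence; potency means the concentration at half of the fitted maximal effect; 0% = enzyme reaction without inhibitor and -100% = no enzyme wells; top concentration of the series not given in the record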
#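 Sfp 15 nM + cpd, 15 min RT; start w/ rhodamine-CoA 5 uM, BHQ-2-YbbR 12.5 uM (final); 50 mM Hepes pH 7.6, 10 mM MgCl2, 0.01% NP-40, 0.01% BSA; read 525/598 nm at 0 and 30 min.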
# An asterisk follows results filed as active; ? = inconclusive; & = joins results of further samples; [ ] = dose if it differs, or a comment.
Menin-MLL FL inh	Sfp inh	SMILES
1.2	-5%	CC[C@H](C)[C@H](NC(=O)[C@H](CCC(=O)O)NC(=O)[C@H](CC(N)=O)NC(=O)[C@@H](N)[C@@H](C)O)C(=O)N[C@H](C(=O)N[C@@H](CCC(=O)O)C(=O)N[C@@H](CCC(=O)O)C(=O)N[C@@H](CCC(N)=O)C(=O)N[C@@H](Cc1ccc(O)cc1)C(=O)N[C@H](C(=O)N1CCC[C@H]1C(=O)N[C@@H](CCC(N)=O)C(=O)N[C@@H](CO)C(=O)N[C@@H](CC(C)C)C(=O)N[C@@H](C)C(=O)N[C@H](C(=O)N[C@@H](CC(C)C)C(=O)N[C@@H](CCC(=O)O)C(=O)N[C@@H](CO)C(=O)N[C@H](C(=O)N[C@@H](Cc1ccccc1)C(=O)N[C@@H](CCC(N)=O)C(=O)N[C@@H](CCC(=O)O)C(=O)N[C@@H](CC(C)C)C(=O)NCC(=O)N[C@@H](CCCCN)C(=O)N[C@@H](CC(C)C)C(=O)N[C@H](C(=O)NCC(=O)N1CCC[C@H]1C(=O)N[C@@H](CC(N)=O)C(=O)N[C@@H](CO)C(=O)N[C@@H](CCC(N)=O)C(=O)O)[C@@H](C)O)C(C)C)[C@@H](C)O)[C@@H](C)O)C(C)C
1.8	11%	CC(C)C[C@H](NC(=O)[C@H](CO)NC(=O)CNC(=O)[C@H](CCCCN)NC(=O)[C@H](CCCN=C(N)N)NC(=O)[C@H](C)NC(=O)[C@H](Cc1ccccc1)NC(=O)[C@@H](N)CCCN=C(N)N)C(=O)N[C@@H](CCCN=C(N)N)C(=O)N[C@@H](CCC(N)=O)C(=O)N[C@@H](CCCCN)C(=O)N[C@@H](CC(N)=O)C(=O)N[C@H](C(=O)O)C(C)C
?	7%	O=C(c1ccncc1)N1CCC2(CCCN(c3ccccc3)C2)CC1
0.2	15%	CN(C)C(=O)c1ccc(-c2ccc3ncnc(NCCN4CCOCC4)c3c2)cc1
-12	4%	CCCCCCCC/C=C/CCCCCCCC(=O)NCCOP(=O)(O)O
-0.9	2%	CNC1C(O)C(OC2C(NC(=O)C(O)CN)CC(N)C(OC3OC(CN)C(O)C(O)C3O)C2O)OCC1(C)O (stereo not drawn)
0.8	2%	CC[C@H]1C2=C3C(CC[C@H]4C(OCc5ccc(F)cc5C(F)(F)F)OC[C@](C)([C@@H]34)N(C(=O)OC(C)(C)C)C2)C(COC(C)=O)C1COC(C)=O (stereo partly drawn)
4.2	-12%	c1nc(NC2CCNCC2)c2cc(-c3ccoc3)ccc2n1

# Compound profiles, from the list above:
# Profile of CC(C)C[C@H](NC(=O)[C@H](CO)NC(=O)CNC(=O)[C@H](CCCCN)NC(=O)[C@H](CCCN=C(N)N)NC(=O)[C@H](C)NC(=O)[C@H](Cc1ccccc1)NC(=O)[C@@H](N)CCCN=C(N)N)C(=O)N[C@@H](CCCN=C(N)N)C(=O)N[C@@H](CCC(N)=O)C(=O)N[C@@H](CCCCN)C(=O)N[C@@H](CC(N)=O)C(=O)N[C@H](C(=O)O)C(C)C = Menin-MLL FL inh: 1.8; Sfp inh: 11%
# Profile of CN(C)C(=O)c1ccc(-c2ccc3ncnc(NCCN4CCOCC4)c3c2)cc1 = Menin-MLL FL inh: 0.2; Sfp inh: 15%
# Profile of c1nc(NC2CCNCC2)c2cc(-c3ccoc3)ccc2n1 = Menin-MLL FL inh: 4.2; Sfp inh: -12%

# Next section:
Menin-MLL FL inh	Sfp inh	SMILES
1.3	6%	C[C@@H]1C[C@](C)(C(=O)c2ccc3ccccc3c2)C=C1c1ccc2ccccc2c1
6.8&4.3	-1%	CC/C=C\C/C=C\C/C=C\C/C=C\C/C=C\CCCC(=O)O
?	1%	COCCNc1ncnc2ccc(-c3ccoc3)cc12
-5.2	19%	COC(=O)N/N=C/C1=C[N+](=O)c2ccccc2[N+]1=O
-8.3	-16%	O=S(=O)(NCCCCCCc1ccccc1)c1cccc2c(Cl)cccc12
1.6	-24%	CC(=O)C1CCC2C3CCC4=CC(=O)CCC4(C)C3CCC12C (stereo not drawn)
-1.1	16%	CO
0.9	6%	CCC1=C2CC[C@H]3C(=O)NC(=O)[C@H]3[C@H]2[C@@]2(C)C(=NCC3CC3)OC(=O)N2C1=O

# Other records:
Menin-MLL FL inh	Sfp inh	SMILES
-1.8[11.7 µM]	6%	C/C=C/OC(=O)NC(c1ccccc1)[C@]1(C(C)=O)CCCC1=O (stereo partly drawn)
-2.2	11%	CC(C)(C)CC(C)(C)c1ccc(O)c(-n2nc3ccccc3n2)c1
0.7	11%	C=C1c2cccc(C(F)(F)F)c2O[C@H](C(=O)OCC)[C@@H]1CCCCCC
1.2	1.8µM*	C=CC(C1=CC(=O)C(OC)=C(OC)C1=O)c1ccccc1 (stereo not drawn)
-3.8	6%	COc1ccc(C(=O)N2CCC3(CCCN(c4ccncc4)C3)CC2)cc1
21&-1.2	?	CN1C(=O)C(Cc2c[nH]c3ccccc23)NC1=S (stereo not drawn)
-4.6	-6%	O=S(=O)(c1ccccc1)N1CCC2(CC1)CN(c1ccccc1)C2
-4.5	12%	CCc1c2c(nc3cccc(OC)c13)OC(CC)C2 (stereo not drawn)

# The results go on.
Menin-MLL FL inh	Sfp inh	SMILES
-3.6	22%	CCCCCCCC/C=C\CCCCCCCC(=O)NCCCC(=O)O
?	?	COc1ccc(CNc2nc(-c3ccoc3)nc3ccccc23)c(OC)c1
-7.3	-6%	COC(=O)[C@H](COC(C)(C)C)NC(=O)O[C@@H]1C(=O)c2ccc(OC)cc2O[C@H]1c1ccc2c(c1)OCO2
-1.4	11%	N#Cc1cccc(-c2cncnc2NCc2ccccc2)c1
-1.7	12%	CC(=O)O[C@H]1C[C@@H]2CC[C@@H]3[C@H](CC[C@@]4(C)[C@H]3C[C@H]([N+]3(C)CCCCC3)[C@@H]4OC(C)=O)[C@@]2(C)C[C@@H]1N1CCCCC1
5.1[11.7 µM]	15%	CO[C@@H]1/C=C\CC(=O)N2CCC[C@@H]2C(=O)OC[C@H](C)C(=O)OC[C@H]1C
-3.1	-25%	CCN(CC)CCNC(=O)COc1ccc(Cl)cc1
-0.8	22%	COc1cc(OC)c2c(=O)c(-c3ccc4c(c3)OCO4)coc2c1

# Remaining list, next part.
Menin-MLL FL inh	Sfp inh	SMILES
3.9[11.7 µM]	6%	CO[C@H]1COC(=O)C/C=C\[C@H](C)[C@@H](OC)COC(=O)[C@H](Cc2ccccc2)NC(=O)C/C=C\[C@@H]1C
2.8&-7.9	?	N[C@H](CC(=O)O)C(=O)O
1.1	-4%	COc1ccc(C2=Nn3c(nnc3-c3cccc(OC)c3OC)SC2)c(OC)c1
?	23%&-11%	CCCn1c(=O)[nH]c2nc(-c3ccc(S(=O)(=O)O)cc3)[nH]c2c1=O
-5.3	-2%	CN(C)C(=O)c1ccc(-c2nc(NCc3cccnc3)c3ccccc3n2)cc1
4.5	-3%	COC(=O)[C@@]1(Cc2ccccc2)[C@H]2c3cc(C(=O)N4CCCC4)n(Cc4cc(F)cc5c4OCOC5)c3C[C@H]2CN1C(=O)c1ccccc1
-2.3	-4%	CCCCCCCCCCCCC/C=C\[C@@H](O)[C@H](CO)NC(C)=O
1.3	15%	COc1cccc(Nc2ncc3nc(C)c(=O)n(CCc4ccccc4)c3n2)c1

# Continuation.
Menin-MLL FL inh	Sfp inh	SMILES
-0.8	18%	Cc1nc2cnc(Oc3ccccc3)nc2n(CCc2ccccc2)c1=O
0.7	11%	CCCCCCCCCCCC(=O)OCC(O)C1OCC(O)C1O (stereo not drawn)
-1.9	8%	COc1cccc(-c2ccc3ncnc(NCc4cnc(C)cn4)c3c2)c1
-0.8	3%	COc1ccc(C(=O)N2CCC3(CC2)CN(C(=O)NC(C)C)C3)cc1
-1.5&-1.6[11.7 µM]	10%&14%	COC(=O)C1=C(C)N(Cc2ccccc2)[C@]23O[C@](C(=O)OC)(C(=O)N2C1c1ccccc1)C1C(=O)N(c2ccccc2)C(=O)C13 (stereo partly drawn)
-0.3	-12%&-21%	CCCCC[C@H](O)C/C=C1/C(=O)C=C[C@@H]1C/C=C\CCCC(=O)O
-1.6	11%	COc1ccc2cnoc(=O)c2c1OC
0.2[11.7 µM]	9%	CCN(CC)C[C@@H](O)CN1CCCCc2nc(C)c(C)cc21

# (further entries)
Menin-MLL FL inh	Sfp inh	SMILES
2.2	0%	[O-][N+](=Nc1ccccc1)c1ccccc1
0.0	1%	O=c1c(-c2ccccc2)nc2cncnc2n1C1CC1
-5.8	8%&5%&7%	COC(C)(C)CCCC(C)C/C=C/C(C)=C/C(=O)O (stereo not drawn)
1.4	8%	CC(=O)N1CCC2(CC1)CN(c1ccncc1)C2
2.8	-11%	COC(=O)[C@H](COC(C)(C)C)NC(=O)O[C@@H]1C(=O)c2cc(OC)ccc2O[C@H]1c1ccc(OC)c(Br)c1
-5.4	-11%	CC/C=C\C/C=C\C/C=C\C/C=C\C/C=C\C/C=C\CCC(=O)NCC(=O)O
-4.1	3%	C#Cc1ccc2c(c1)C(=O)N(C)Cc1c(C(=O)OCCCOC(=O)c3ncn4c3CN(C)C(=O)c3cc(C#C)ccc3-4)ncn1-2
?	45µM*	[C-]#[N+]/C(C#N)=C\c1cc(C(C)(C)C)c(O)c(C(C)(C)C)c1

# More records follow.
Menin-MLL FL inh	Sfp inh	SMILES
-16[11.7 µM]	-10%	O=C1C2=CC[C@@H]3C(=O)N(c4ccc(F)cc4F)C(=O)[C@H]3[C@H]2[C@H](O)[C@H]2O[C@H]12
?	18µM*	CC1(C)Cc2c(C#N)c(N3CCCC3)nc(-c3ccco3)c2CO1
20	50µM*	CN(C)c1ccc(-c2cc(-n3ccnc3)ncn2)cc1
-8.8	10%&-8%	O=C1O[C@@H]([C@@H](O)CO)[C@@H](O)[C@H]1O
-0.3	?	COC(=O)c1ccc(C(NC(=O)OCc2ccccc2)/C(I)=C/[C@@H](C)C(=O)NCc2ccncc2)cc1 (stereo partly drawn)
-0.7	6%	C[C@H]1C2=C3C(C[C@H]4C(=O)N(c5ccccc5)C(=O)[C@H]4[C@H]3[C@@]3(Cc4ccccc4)C(=NCCc4c[nH]c5ccccc45)OC(=O)N3C2=O)[C@H]2C(=O)N(c3ccccc3)C(=O)[C@H]21 (stereo partly drawn)
-0.5	4%	CC1CC2(C)Oc3ccccc3C3OCC1(COC(=O)Nc1ccccc1)C(C)C32 (stereo not drawn)
?	56µM*	COc1ccc(OC)c2c(=S)c3ccccc3[nH]c12

# Entries listed so far with a CF3 group, in the order listed:
Menin-MLL FL inh	Sfp inh	SMILES
0.8	2%	CC[C@H]1C2=C3C(CC[C@H]4C(OCc5ccc(F)cc5C(F)(F)F)OC[C@](C)([C@@H]34)N(C(=O)OC(C)(C)C)C2)C(COC(C)=O)C1COC(C)=O (stereo partly drawn)
0.7	11%	C=C1c2cccc(C(F)(F)F)c2O[C@H](C(=O)OCC)[C@@H]1CCCCCC

# Later entries:
Menin-MLL FL inh	Sfp inh	SMILES
0.9	16%	Cc1noc(C)c1-c1ccc2ncnc(N3CCOCC3)c2c1
0.1	5%	CCNc1ncc2nc(CCc3ccccc3)c(=O)n(C3CC3)c2n1
2.4	14%	COC(=O)c1ccc(C(NC(=O)OCc2ccccc2)/C(C)=C/[C@@H](C)C(=O)N2CCN(C)CC2)cc1 (stereo partly drawn)
-1.5	1.1µM*	O=C(O)[C@@H](S)[C@H](S)C(=O)O
4.6	-15%	CCCn1c(=O)c(C)cn2nc(N)nc12
-2.1	20%	O=C(c1cnccn1)N1CCC2(CC1)CN(Cc1nccs1)C2
1.1	-3%	OC[C@@H]1O[C@H](O)[C@H](O)[C@@H](O)[C@@H]1O
-1.9[11.7 µM]	1%	C=CCN1c2ccccc2[C@]23C[C@@H](C(=O)OC)N(S(=O)(=O)c4ccc([N+](=O)[O-])cc4)C2=NC(C(=O)OC)=C(C(=O)OC)[C@H]13

# Continuation:
Menin-MLL FL inh	Sfp inh	SMILES
-9.5	2%	O[C@H](CCCN1CCN(c2ncc(F)cn2)CC1)c1ccc(F)cc1
0.9	13%	Cc1nc(Nc2ccccc2)c2nc(-c3ccccc3)n(CCCN3CCCCC3C)c2n1 (stereo not drawn)
2.0[94.6 µM]	-3%	O=C(O)c1ccc(-c2ccccc2C(F)(F)F)s1
0.7[11.7 µM]	3%	CSCC[C@@H]1NC(=O)C/C=C\[C@@H](C)COC(=O)[C@@H](CCSC)NC(=O)C/C=C\[C@@H](C)COC1=O
-9.4	-15%	COc1ccc(Oc2ncc3nc(-c4ccccc4)c(=O)n(C4CC4)c3n2)cc1
0.0	40µM*	COC(=O)c1ccc(C(NC(=O)OCc2ccccc2)/C(I)=C/[C@@H](C)C(=O)NCc2ccc(C)o2)cc1 (stereo partly drawn)
-5.1	17%	C[C@@]1(C(NC(=O)c2ccccc2)c2ccc(-c3ccccc3)cc2)C[C@H]1C1CCCCC1 (stereo partly drawn)
4.2[11.7 µM]	-3%	CCCCCCC#CC1C=CC(OC(=O)OCC)C(COC(=O)OCC)O1 (stereo not drawn)

# Further compounds follow:
Menin-MLL FL inh	Sfp inh	SMILES
-1.9	16%	O=C(/C=C/c1ccccc1)NCCO
?	15%	CCNc1ncc2nc(-c3cccs3)c(=O)n(Cc3ccc(F)cc3)c2n1
-20	2%	COc1ccccc1-c1oc2ccccc2c(=O)c1OC
-2.7	11%	NC(=O)NS(=O)(=O)c1ccc(N)cc1
-5.8[11.7 µM]	3%	C=CCNC(=O)N1CCc2nc(COc3ccccc3)c3c(c2C1)CO[C@@H](C)C3

# Some of the compounds tested (hit frequency here may not be typical).
